ALR inh – inhibitors of human ALR sulfhydryl oxidase, primary screen, biochemical, H2O2 detection, HRP-luminol luminescence, single point; FAD-linked sulfhydryl oxidase ALR (Homo sapiens), P55789; purified ALR, DTT oxidation; inhibition, % (concentration not given with the values); actives 3.8% (n = 290,000); AID 485317, 2010;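 active = mean and each replicate at 75% or more; inconclusive = only one of the two met; inactive = neither met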;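 also: stock transfer was 7.5 nL into about 7.5 µL; 0% = neutral wells and 100% = wells with inactivated enzyme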
Target sequence (P55789 whole entry, looked up): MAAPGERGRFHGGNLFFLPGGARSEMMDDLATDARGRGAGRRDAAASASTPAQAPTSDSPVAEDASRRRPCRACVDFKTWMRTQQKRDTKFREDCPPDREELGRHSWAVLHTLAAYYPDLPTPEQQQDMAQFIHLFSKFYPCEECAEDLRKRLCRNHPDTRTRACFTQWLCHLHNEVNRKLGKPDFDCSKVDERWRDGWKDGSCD
LANA-H2A inh – blockers of LANA interaction with H2A/H2B – biochemical, FP readout, HTS, primary screen; Protein LANA1 (Human herpesvirus 8 type P (isolate GK18)), Q9QR71; cell-free LANA-H2A/H2B peptide, fluorescence polarization; inhibition, % (no concentration beside the values); actives 0.6% (n = 320,000); AID 2629, 2010; in the data active = inhibition mostly above about 10%, no sharp cut-off; inactive = mostly below about 6.7%;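 also: stock transfer was 7.5 nL into about 10 µL; 0% = median of vehicle wells and 100% = median of positive control wells; one replicate is shown; the record names a cut of 25% in any replicate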
B2AR ag – beta2AR agonists driving receptor internalization, primary screen, cell-based, FAP fluorogen, flow cytometry | Beta-2 adrenergic receptor (Homo sapiens), P07550 | Am2.2-beta2AR cells; reference of the scale not given here | AID 504454, 2011 | response, % (concentration not given with the values) | actives 0.43% (n = 340,000);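 active = response above a set limit, near 3 SD of response in nonfluorescent compounds, cut at about 42% in these data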;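 also: stock transfer was 100 nL into about 11 µL; a reference agonist was the positive control; negative values mostly stem from fluorescent compounds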
Target sequence (P07550 whole entry, looked up): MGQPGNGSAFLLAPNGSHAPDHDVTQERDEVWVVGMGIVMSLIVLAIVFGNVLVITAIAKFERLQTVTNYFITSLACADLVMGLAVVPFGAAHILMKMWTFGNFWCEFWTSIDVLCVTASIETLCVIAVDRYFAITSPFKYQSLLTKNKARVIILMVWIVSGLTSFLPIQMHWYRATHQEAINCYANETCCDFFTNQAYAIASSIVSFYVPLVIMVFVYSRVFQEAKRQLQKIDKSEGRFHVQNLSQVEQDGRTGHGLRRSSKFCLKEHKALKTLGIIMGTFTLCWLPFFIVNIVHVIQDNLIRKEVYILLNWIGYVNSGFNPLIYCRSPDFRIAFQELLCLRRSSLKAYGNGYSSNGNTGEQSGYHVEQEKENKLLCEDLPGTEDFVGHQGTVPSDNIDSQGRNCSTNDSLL
HNF4A DNA FP – change in binding of human HNF4A to DNA, primary screen, biochemical, fluorescence polarization, FITC-DNA; Hepatocyte nuclear factor 4-alpha (Homo sapiens), P41235; actives 0.3% (n = 360,000); 1 h; activity change, % at 10 µM; in the data active = activity change above about 30%, passing the limit was not always enough;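 also: controls were the assay level and a saturating level of protein; the project sought stronger binding though the title names inhibitors; some compounds called inactive have numbers as strong as hits; positive values seem to mean higher polarization but the record does not say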
Target sequence (P41235 whole entry, looked up): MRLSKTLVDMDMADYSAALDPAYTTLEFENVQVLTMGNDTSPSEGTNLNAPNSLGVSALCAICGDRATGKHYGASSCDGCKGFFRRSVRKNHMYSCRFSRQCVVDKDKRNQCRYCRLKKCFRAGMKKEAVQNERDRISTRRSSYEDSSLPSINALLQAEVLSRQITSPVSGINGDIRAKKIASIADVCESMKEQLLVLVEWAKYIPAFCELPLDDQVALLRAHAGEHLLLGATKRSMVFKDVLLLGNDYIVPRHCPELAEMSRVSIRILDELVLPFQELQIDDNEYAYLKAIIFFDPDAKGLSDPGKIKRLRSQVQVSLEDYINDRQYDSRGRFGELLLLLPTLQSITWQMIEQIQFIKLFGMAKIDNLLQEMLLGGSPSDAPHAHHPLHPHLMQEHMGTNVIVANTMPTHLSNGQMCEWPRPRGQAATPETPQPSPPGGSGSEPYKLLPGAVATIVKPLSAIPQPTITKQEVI
Calb FLC – C. albicans growth inhibition with fluconazole, primary screen, CaCi-2 strain, Alamar Blue fluorescence; C. albicans CaCi-2 (fluconazole-resistant clinical isolate) + fluconazole, 48 h; growth inhibition, % (test concentration not listed); actives 0.57% (n = 300,000); AID 1979, 2009;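 active = most replicates above 75%; inconclusive = exactly half above 75%; inactive = most below 75%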;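 also: all wells also contain fluconazole at 8 µg/ml as a sub-toxic cotreatment; 0% = median of DMSO wells and 100% = median of geldanamycin control wells; wells of about 8 µL received 7.5 nL stock; the first replicate is given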
Vif TR-FRET – inhibitors of Vif binding to APOBEC3G peptide, primary screen, biochemical, TR-FRET, GST-Vif 1-94, biotin-A3G peptide, dose response retest (AID 1117319); TR-FRET GST-Vif / biotin-A3G peptide binding; higher % means a stronger effect; test concentration not given here; strong numbers were not always called active; one-dose inhibition, %; IC50 in µM for titrated hits; actives 0.57% (n = 260,000); Virion infectivity factor (Human immunodeficiency virus type 1 group M subtype B (isolate …;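 active = above the screen mean plus three standard deviations and confirmed in dose response; inconclusive = results disagree or hit not tested in dose response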;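 also: Vif residues 1-94 fused to GST binding biotinylated APOBEC3G peptide 110-148; 0% = full assay without inhibitor and 100% = GST in place of GST-Vif; retest series ran down from 100 µM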
RanGTP-Impb inh – inhibitors of RanGTP-importin-beta interaction, primary screen, biochemical, FRET, CFP-Ran, YFP-importin-beta, homogeneous; actives 1.1% (n = 300,000); inhibition, % (no concentration beside the values); cell-free CFP-Ran/YFP-importin-beta FRET ratio; AID 2216, 2009;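 active = most replicates above 15%; inconclusive = exactly half above 15%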;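 also: 0% = DMSO wells and 100% = Ran loaded with GDP instead of GTP; wells of about 40 µL received 100 nL stock; the first replicate is given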
* hit, by the source's call; ? = inconclusive; nt = not tested or not shown; & = joins results of further samples.

SMILES	ALR inh	LANA-H2A inh	B2AR ag	HNF4A DNA FP	Calb FLC	Vif TR-FRET	RanGTP-Impb inh
Cc1cc(N)n2nc(C)c(-c3ccccc3)c2n1	28.4	2.5	18.5	4.4	27.4	-4.8%	?
COc1ccc(C(=O)CC(c2ccccc2)S(=O)(=O)c2ccc(C)cc2)cc1 (centres undefined)	-0.7	2.9	nt	nt	-2.2	-8.1%	3.7
Cc1ccc(S(=O)(=O)N2CCOCC2)cc1NC(=O)CNc1ccccc1N1CCCC1=O	nt	nt	9.5	-0.5	nt	5.2%	nt
NC(=O)c1ccc(NC(=O)CSc2nnc(C3CC3)n2C2CC2)cc1	-15.1	5.4	-3.8	-3.9	nt	-3.8%	nt
O=c1cc(-c2ccccc2)oc2ccc(Br)cc12	-0.3	6.1	-2.4	0.0	nt	nt	nt
COc1ccc(C(CNC(=O)c2ccc(C)c(S(=O)(=O)N3CCCCC3)c2)N(C)C)cc1OC (centres undefined)	5.9	-4.2	-4.7	-0.7	9.8	nt	3.0
CC(C)(C)N1CCC1C(N)=O (centres undefined)	-0.7	-2.4	nt	nt	-2.7	nt	3.2
Cc1cccc(NC(=O)Cc2nc(-c3c[nH]c(C(=O)N4CCCC4)c3)cs2)c1	nt	nt	3.8	-2.5	nt	21.1%	nt
CC(C)NCCOCCOc1ccccc1F	-4.8	2.2	6.2	-5.6	3.3	5.5%	-0.3
CCCOc1ccc(S(=O)(=O)NCCN2CCOCC2)c2ccccc12	-8.6	7.1	-13.8	-1.5	-2.5	9.2%	3.1
O=S(=O)(Nc1cccc2nsnc12)c1ccccc1	60.1	3.3	-6.5	9.9	67.1	-4.5%	-2.9
Cc1ccc(NC(=O)CO/N=C(\N)c2nonc2N)cc1C	28.5	-0.1	-2.1	-5.2	4.8	nt	-1.0
N#CC(c1ccccc1F)(c1ncc(C(F)(F)F)cc1Cl)N1CCOCC1 (centres undefined)	-3.5	-1.1	-6.5	-1.6	16.3	-1.6%	-2.3
COc1ccccc1Nc1nc(-c2cccc([N+](=O)[O-])c2)nc2ccccc12	-11.1	-1.3	5.4	-0.8	-5.4	2.5%	?
Cc1ccc(/C=C2\C(=N)N3N=C(CC(=O)N4CCCCC4)SC3=NC2=O)cc1	11.1	9.0	-0.9	0.0	-6.5	nt	2.9
C=CCN1C(=O)C(C)(C)N(C(=O)c2cccc([N+](=O)[O-])c2)c2ccccc21	-3.2	-4.6	4.0	-0.7	10.6	nt	-3.0
Cn1nnnc1-c1cc(Cl)cc(Cl)c1	-4.5	1.4	-0.3	-1.0	8.5	-2.0%	-2.0
Cc1noc(C)c1NC(=O)Nc1ccc2c(c1)C(=O)N([C@H](C)CO)C[C@H](C)[C@@H](CN(C)S(=O)(=O)c1c(C)noc1C)O2	-0.4	4.5	8.0	0.2	nt	nt	nt
COC(=O)C1=C(C)NC2=C(C(=O)CCC2)C1c1cn(Cc2ccc(Br)cc2)nc1-c1ccccc1 (centres undefined)	-1.3	-1.6	-17.6	-0.1	35.9	9.9%	4.1
Cn1cnnc1SCC(=O)Nc1c(F)cc(F)cc1Br	3.9	-6.5	-5.0	1.4	nt	2.2%	-0.3
CN=C1SC(CC(=O)Nc2cccc(Cl)c2Cl)C(=O)N1C (centres undefined)	-9.4	5.0	-7.3	3.2	1.5	6.9%	0.0
COc1ccc(NC(C)=O)cc1NC(=O)CSc1nnc(C2CCCCC2)n1N	-4.6	-6.3	-8.3	-1.3	-2.9	nt	2.2
CS(=O)(=O)N1CCN(C(=O)c2csc3ccccc23)CC1	-14.2	0.3	5.5	2.3	14.2	18.9%	0.7
CCC(=O)N1CCc2cc(S(=O)(=O)CCC(=O)NCCc3ccc(OC)c(OC)c3)ccc21	-6.1	7.1	-3.4	2.5	-0.6	-4.2%	-3.1
O=C(c1ccc2oc(CCc3ccccc3)nc2c1)N1CCC(O)CC1	-16.8	1.1	-2.0	-0.5	1.0	nt	?

Four entries out of the list, sorted by count of non-hydrogen atoms, descending:
SMILES	ALR inh	LANA-H2A inh	B2AR ag	HNF4A DNA FP	Calb FLC	Vif TR-FRET	RanGTP-Impb inh
COc1ccccc1Nc1nc(-c2cccc([N+](=O)[O-])c2)nc2ccccc12	-11.1	-1.3	5.4	-0.8	-5.4	2.5%	?
NC(=O)c1ccc(NC(=O)CSc2nnc(C3CC3)n2C2CC2)cc1	-15.1	5.4	-3.8	-3.9	nt	-3.8%	nt
Cc1ccc(NC(=O)CO/N=C(\N)c2nonc2N)cc1C	28.5	-0.1	-2.1	-5.2	4.8	nt	-1.0
CC(C)NCCOCCOc1ccccc1F	-4.8	2.2	6.2	-5.6	3.3	5.5%	-0.3

Following part.
SMILES	ALR inh	LANA-H2A inh	B2AR ag	HNF4A DNA FP	Calb FLC	Vif TR-FRET	RanGTP-Impb inh
COC(=O)c1ccc(COC(=O)C2CC(O)CN2S(=O)(=O)c2ccc([N+](=O)[O-])cc2)cc1 (centres undefined)	-17.1	2.5	10.8	-3.0	nt	-8.0%	nt
Cc1sc2nc(SCC(=O)NCc3ccco3)n(CCc3ccccc3)c(=O)c2c1C	nt	-0.9	-5.3	5.7	-21.4	-15.1%	0.8
CCOCCCNc1nc(C)nc2c1nnn2Cc1c(F)cccc1Cl	-4.6	-2.0	1.0	1.9	-7.2	?	-0.3
CC(C)(C)NC(=O)NC(=O)CN1CCN(c2cccc(Cl)c2)CC1	nt	3.8	0.0	2.1	-8.6	0.7%	-1.1
COc1ccc(N2CC(C(=O)NCCN3C(=O)S/C(=C\c4cccnc4)C3=O)CC2=O)c(OC)c1 (centres undefined)	-5.6	-2.9	-2.4	4.4	5.8	nt	?
CSCCC(NC(=O)c1ccccc1)C(=O)N1CCCCCCC1 (centres undefined)	-1.9	3.4	6.3	-4.6	nt	-1.3%	nt
COC(=O)c1cccc(NC(=S)NCc2ccc(Cl)cc2)c1	-3.4	1.9	7.1	-1.5	-46.1	7.4%	0.8
CC(=O)Nc1ccc(OCCOc2ccc(NC(C)=O)cc2)cc1	2.1	2.2	-4.4	3.2	-0.6	-7.3%	0.7
COc1ccc(C(=S)N2CCNCC2)cc1	-2.4	-1.4	7.0	0.5	4.9	-4.2%	-3.1
CCOC(=O)C1=C(c2ccccc2)NC(SCC)=C(C#N)C1c1cccnc1 (centres undefined)	9.8	1.5	1.4	-1.4	11.7	2.1%	0.5
Clc1ccc(Cn2cccc2C2=NCCO2)cc1	-9.6	-2.3	4.6	-1.1	4.9	4.0%	2.0
O=C(CN1CCC(NC(=O)c2ccccc2Cl)CC1)NCc1ccccc1	-0.9	-6.3	-2.1	-1.8	-10.3	7.7%	3.8
CC(=O)Nc1ccc(S(=O)(=O)N2CCN(S(=O)(=O)c3ccccc3)CC2)cc1	-1.2	-2.7	10.7	-3.5	-9.4	nt	-5.8
CC(=O)N1CCN(c2nc(N)c(C#N)c(CC#N)c2C#N)CC1	48.6	-3.5	-2.4	1.6	-5.5	-8.4%	7.3
COc1ccc(-n2c(=O)c3ccccc3n(CC(=O)c3ccccc3)c2=O)cc1OC	-3.9	4.1	8.9	1.4	-12.7	nt	-2.3
O=C(O)COc1ccccc1/C=C1\C(=O)Nc2ccc(Br)cc21	97.6*	0.9	2.9	-1.8	-14.0	4.8%	-3.8
Cc1ccc(CN2CCN(Cc3ccncc3)CC2CCO)o1 (centres undefined)	nt	1.6	1.2	-3.6	-7.2	13.9%	1.1
CC1=CC2C(C(O)CC3(C)C2CC(C)C32OCOC23COCO3)C2(C)C/C(=C\O)C(=O)C=C12 (centres undefined)	nt	nt	27.4	-2.6	nt	-2.0%	nt
COc1ccc(C(=O)Nn2c(SCC(=O)NCc3ccco3)nc3ccccc3c2=O)cc1	-1.9	1.3	3.1	1.3	0.6	0.6%&15.4%	2.4
O=C(CCN1CCCCCC1)Nc1cccc(Cl)c1	-16.9	-0.9	12.9	2.2	6.2	-3.8%	-2.8
CC(NC(=S)Nc1ccc([N+](=O)[O-])cc1)c1ccncc1 (centres undefined)	-0.6	-5.3	4.5	-1.7	?	32.5%	8.8
Clc1c(-c2nnc3n2CCC3)sc2ccccc12	-3.9	-0.1	-1.6	-1.4	25.1	69.5%	-5.9
CC(C)c1ccc(CNc2ncccn2)cc1	3.2	1.6	-6.1	2.5	-3.7	6.3%	?
CCNC(=S)NS(=O)(=O)c1ccc(F)cc1	25.2	2.5	-2.4	0.0	-6.2	-9.0%	?
CCCN(Cc1nnc(-c2ccccc2Cl)o1)C(=O)c1cc([N+](=O)[O-])cc([N+](=O)[O-])c1	-44.2	6.2	-0.7	0.4	1.4	-7.3%	?
(more compounds)
SMILES	ALR inh	LANA-H2A inh	B2AR ag	HNF4A DNA FP	Calb FLC	Vif TR-FRET	RanGTP-Impb inh
CCOC(=O)c1nnc(-c2cccs2)nc1NC(C)C	nt	-1.2	-5.7	6.3	30.8	12.8%	6.9
CN(C(=O)c1ccccc1C(=O)OCC(=O)Nc1ccc(S(N)(=O)=O)cc1)c1ccccc1	29.5	-1.1	5.0	1.8	-0.3	7.5%	1.3
O=C1CCC(=O)N1c1cccc(OS(=O)(=O)c2ccccc2)c1	-19.1	2.8	1.9	0.8	12.9	20.2%	-0.2
O=C(CCc1nc2ccccc2[nH]1)Nc1ccc2c(c1)OCCO2	-13.9	-0.4	-8.3	0.8	-4.6	-4.9%	4.0
Cc1cc(OCCCn2ccnc2)ccc1C(C)C	-2.5	0.9	-12.6	0.6	-10.5	-4.4%	5.1
CCCNC(=O)NCCC12CC3CC(CC(C3)C1)C2	6.1	-0.7	-1.2	0.7	0.1	25.9%	7.1
COc1cc(OC)c(C2CC(=O)N3CN(c4ccccc4)CSC3=C2C#N)cc1OC (centres undefined)	-12.0	2.3	1.9	-0.7	31.4	14.1%	-149.1
C=CCC(O)(CC=C)CNC(=O)C1CCC(=O)N(CCCc2ccccc2)C1 (centres undefined)	-0.3	-2.6	2.9	1.0	-7.6	nt	-0.2
O=C(C1CCN(S(=O)(=O)c2cccc3nonc23)CC1)N1CCCCC1	-7.3	-1.5	-9.4	1.6	-4.7	nt	0.7
O=C(CSc1nnc(NC(=O)c2ccco2)s1)Nc1ccccc1	-13.8	-5.7	-4.0	3.5	14.0	-13.9%	4.3
Cc1cc(C)n(C(=O)CNC(=O)COc2ccccc2)n1	-0.2	0.0	-7.5	0.6	nt	?	nt
COc1ccc(NS(=O)(=O)c2ccc3c(c2)CCC(=O)N3)cc1O	nt	nt	0.8	-0.2	nt	6.7%	nt
CC1CCCC(NC(=O)C2CCCN2S(=O)(=O)c2cccc3nsnc23)C1C (centres undefined)	-6.5	-1.9	-0.1	3.4	-1.0	11.2%	-1.1
CC(=O)OC1CCC2(C)C(=CCC3C4CC(=O)N(O)C(=O)C4(C)CCC32)C1 (centres undefined)	nt	nt	1.2	-0.5	nt	-10.6%	nt
O=C(Cn1nc(C(=O)O)c2ccccc2c1=O)NC12CC3CC(CC(C3)C1)C2	0.7	-2.0	-7.8	-3.0	-16.3	-7.9%	-0.2
O=C1NC(=O)/C(=C\c2ccccc2OCc2ccc([N+](=O)[O-])cc2)N1	-14.1	-2.0	-2.4	0.8	41.0	24.6%	-0.7
CCn1cc(C(=O)O)c(=O)c2cc(F)c(N3CCN(C(=S)NC(=O)c4ccc(F)c(F)c4)CC3)cc21	-6.2	-4.5	15.4	0.3	?	1.7%	6.9
Cc1cc(-n2nnc3ccccc32)nc2ccccc12	7.0	1.3	-11.2	2.4	-3.0	-4.4%	-2.1
